# CtBP-E1A blk: blocks the CtBP interaction with E1A. actives 0.49% (n = 340,000). AlphaScreen GST-E1A/His-CtBP binding, 1536-well; hits give low values; control for the full effect not named in the record. activity change, % (concentration not given with the values); in the data active means activity change below about -65%; inconclusive means about -30% to -65%; inactive means above about -30%; further: on the % scale 0 is the no-effect control and ±100 the full control effect
#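 In 5 uL wells, 23 nL compound meets equimolar GST-E1A and His-CtBP (5X stock 125 nM each) for 2 h, 37 °C. Beads (5X, 50 ug/mL) then 1 h, 37 °C, dark.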
# TRPML1 blocker: blocks the human TRPML1 channel. TRPML1-inducible cells, Ca2+ dye fluorescence, FDSS; hits give low values; inhibition of EC80 agonist-evoked calcium signal. Q9GZU1. actives 0.02% (n = 390,000). activity change, negative = inhibition, % (concentration not given with the values). AID 624415; in the data active means activity change below about -50%; inconclusive means about -30% to -50%; inactive means above about -30%;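 further: stimulus is agonist 54-4 at its EC80 concentration; on the % scale 0 is the no-effect control and ±100 the full control effect; compound concentration not given in the record; the text of the record puts the active cut at -80%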
# Target sequence (Q9GZU1 whole entry, looked up): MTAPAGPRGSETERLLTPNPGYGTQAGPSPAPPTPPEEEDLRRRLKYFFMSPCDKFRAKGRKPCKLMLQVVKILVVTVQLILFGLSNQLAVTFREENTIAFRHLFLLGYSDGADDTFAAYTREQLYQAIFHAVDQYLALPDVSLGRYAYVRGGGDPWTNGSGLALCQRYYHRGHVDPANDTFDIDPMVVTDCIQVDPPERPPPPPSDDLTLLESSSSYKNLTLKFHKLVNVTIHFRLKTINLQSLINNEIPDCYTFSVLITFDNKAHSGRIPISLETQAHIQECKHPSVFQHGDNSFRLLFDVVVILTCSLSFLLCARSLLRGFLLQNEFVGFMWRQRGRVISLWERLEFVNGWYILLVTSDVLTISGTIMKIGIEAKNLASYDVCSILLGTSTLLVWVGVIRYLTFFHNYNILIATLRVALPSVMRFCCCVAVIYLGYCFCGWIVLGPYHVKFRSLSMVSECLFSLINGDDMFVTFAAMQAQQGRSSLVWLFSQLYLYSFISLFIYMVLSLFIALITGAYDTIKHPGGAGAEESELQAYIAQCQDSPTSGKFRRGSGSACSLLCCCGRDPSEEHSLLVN
#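 Tet-induced TRPML1-DL cells loaded with Ca8 no-wash calcium dye were read kinetically on FDSS. Compound addition was followed by EC80 agonist 54-4 (4 uM final); inhibition was read over 110 s.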
# TRPML1 ag: human mucolipin-1 channel agonism; Q9GZU1; TRPML1-expressing cells, Ca2+ dye fluorescence, FDSS; host cell line not named in the record; reference of the full effect not given here; activation, % (concentration not given with the values); actives 0.12% (n = 410,000); AID 624414; in the data active = activation above about 50%; inconclusive = about 30% to 50%; inactive = below about 30%; further: 0% is about no effect; the text of the record puts the active cut at 80%
#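 Calcium fluorescence on an FDSS kinetic reader gave the read-out. Tet-induced TRPML1-DL cells were plated overnight, dye-loaded (Ca8 with quencher, 45-90 min, room temperature, dark), then read 110 s after compound addition, and again 110 s after 4uM final 54-4 (EC80).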
# Six1-Eya2 blk: blocks human Six1 binding to Eya2; actives 0.56% (n = 360,000); activity change, % (no concentration beside the values); AlphaScreen GST-Six1/His-Eya2 binding, biochemical; hits give low values; control for the full effect not named in the record; AID 651725; in the data active = activity change below about -65%; inconclusive = about -30% to -65%; inactive = above about -30%; further: on the % scale 0 is the no-effect control and ±100 the full control effect; compound concentration not given in the record
#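 AlphaScreen luminescence read after one hour at 37 °C in darkness. Pin-transferred compounds met GST-Six1 and His-Eya2 protein (5X stock 250 nM/500 nM) plus glutathione donor and Ni-chelate acceptor beads (5X, 50 ug/mL).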
# D2 PAM: positive allosteric modulators of human D2 dopamine receptor; potentiation, % (no concentration beside the values); DiscoveRx D2 beta-arrestin cells, luminescence, 90 min; 100% = 57 uM dopamine signal; P14416; actives 0.23% (n = 360,000); active = potentiation of 50% or more; inconclusive = 30% to 50%; inactive = 30% or less;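 further: compound concentration not given in the record; tested on top of an EC20 dose of dopamine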
# Target sequence (P14416 whole entry, looked up): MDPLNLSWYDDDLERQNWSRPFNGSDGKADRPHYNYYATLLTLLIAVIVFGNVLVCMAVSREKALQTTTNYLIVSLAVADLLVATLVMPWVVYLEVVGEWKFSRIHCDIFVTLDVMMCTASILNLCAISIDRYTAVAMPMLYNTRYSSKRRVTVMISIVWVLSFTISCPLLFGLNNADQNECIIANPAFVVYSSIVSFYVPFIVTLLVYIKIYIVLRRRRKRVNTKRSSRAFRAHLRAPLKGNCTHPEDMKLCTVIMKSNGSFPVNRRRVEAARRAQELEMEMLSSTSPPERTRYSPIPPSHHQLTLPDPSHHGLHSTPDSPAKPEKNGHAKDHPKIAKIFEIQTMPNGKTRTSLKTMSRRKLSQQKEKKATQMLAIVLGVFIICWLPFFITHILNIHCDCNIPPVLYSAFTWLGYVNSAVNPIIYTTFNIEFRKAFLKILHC
#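 D2 cells co-treated with compound plus 50 nM dopamine (EC20) for 90 min at 37 deg C to detect potentiation. Beta-arrestin recruitment was read as enzyme-fragment luminescence after 1 h at ambient temperature. Full response was set by 57 uM dopamine.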
# TRPV1 potentiator: enhances activation of the human vanilloid receptor TRPV1 | potentiation, % at 8.33 µM | actives 0.02% (n = 320,000) | AID 540277 | TRPV1-expressing cells, Fluo-8 calcium influx, capsaicin EC20 potentiation; host cell line not named in the record; control for the full effect not named in the record; active means potentiation above 80%; inconclusive means 30% to 80%; inactive means below 30%; further: 0% is about no effect
#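 Cells expressing TRPV1 were dye-loaded with Fluo-8 and read kinetically: 10 s baseline, 3 min after compound (agonist portion), then 2 min after EC20 capsaicin (allosteric enhancer portion). Calcium-bound dye fluorescence at 480/520 nm.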
# * = called active by the depositor; u = inconclusive; x = not tested or not shown; & = joins results of further samples.
(1) CCn1c(=O)c2c(nc3n2CCCN3CCc2ccccc2)n(C)c1=O
(2) N#Cc1ccc(NC(=O)Cn2cnc([N+](=O)[O-])c2)cc1
(3) CC(C)CCNC(=O)C(c1cccnc1)N(Cc1ccccc1)C(=O)Cn1nnc2ccccc21 (stereo not given)
(4) Cc1cc(C)cc(Oc2c(C(F)(F)F)oc3cc(OCC(=O)O)ccc3c2=O)c1
(5) Cc1ccc(NC(=O)Cn2ncn3c(cc4ccccc43)c2=O)c(C)c1
(6) O=C(CCc1nc2ccccc2c(=O)[nH]1)N1CCN(S(=O)(=O)c2cc(Cl)ccc2Cl)CC1
(7) CCOc1ccc(OCCC(=O)N(CC(C)C)c2c(N)n(Cc3ccccc3)c(=O)[nH]c2=O)cc1
(8) O=C(Nc1cc2c(cc1Cl)-c1ccc([N+](=O)[O-])cc1C2=NO)C(F)(F)F
(9) COCC(=O)NC1CCN(CC(=O)Nc2ccc(OC)cc2[N+](=O)[O-])CC1
(10) COCCn1c(SCC(=O)Nc2ccc(Cl)cn2)nnc1-c1ccncc1
entry no.	1	2	3	4	5	6	7	8	9	10
CtBP-E1A blk	-8	7	8	x	-13	x	-21	-24	0	4
TRPML1 blocker	-7	1	7	-9	-8&-16	-13	23	-2	16	-16
TRPML1 ag	-0.9	-0.2	-0.1	1.1	-0.8&1.2	-0.8	1.5	0.1	3.9	-0.3
Six1-Eya2 blk	-16	8	4	-4	-2	-2	5	-28	4	-2
D2 PAM	-11	-2	-10	-12	-11	-7	-5	-5	-11	-4
TRPV1 potentiator	-13	-25	x	-22	-3	x	x	x	-5	-6

(11) CN(C)CCCNC(=O)c1ccccn1
(12) Cc1ccc(-c2nc(CS(=O)(=O)CC(=O)NCCN3CCCC3)c(C)o2)cc1
(13) Cc1cc(C)cc(C(=O)NCCCN2CCOCC2)c1
(14) Nc1[nH]c(=O)[nH]c(=O)c1N=Nc1ccc(C(=O)O)cc1
(15) COC(=O)CCCC(=O)N1CCC(CCC(=O)NC2CC2)CC1
(16) O=[N+]([O-])c1ccccc1/C=C/CN1CCCCC1CO (stereo not given)
(17) O=C(N/N=C/c1ccc(Sc2nc3ccccc3s2)c([N+](=O)[O-])c1)c1ccccn1
(18) CCCCC(=O)N(C)c1c(C)nc2ccc(C(=O)N3CCN(S(=O)(=O)CC)CC3)cn12
(19) C=CCn1c(C)cc(C(=O)COC(=O)CNC(=O)c2ccccc2)c1C
(20) Cc1cc(/C=C2\SC(=O)NC2=O)c(C)n1-c1ccc(N2CCOCC2)cc1
entry no.	11	12	13	14	15	16	17	18	19	20
CtBP-E1A blk	1	-4	1	1	x	-2	2	4	-2	2
TRPML1 blocker	-10	18	-11	x	-22	2	-6	x	10	3
TRPML1 ag	-0.6	0.0	0.4	x	0.1	0.3	-0.2	0.0	-1.7	-0.5
Six1-Eya2 blk	5	0	-6	1	3	3	-2	4	1	-28
D2 PAM	-8	-7	-10	-5	-9	-3	2	6	-7	2
TRPV1 potentiator	u	23	26	4	4	0	19	x	0	6

(21) Cc1c(Cl)c([N+](=O)[O-])nn1CC(=O)Nc1ccc2c(c1)OCO2
(22) CC(C)(SC(=S)N1CCOCC1)C(=O)O
(23) CCOC(=O)Nc1ccc2c(c1)N(C(=O)N1CCN(C)CC1)c1ccccc1CC2
(24) CC(C)C(NC(=O)CCNC(=O)c1ccccc1Cl)c1nc2ccccc2[nH]1 (stereo not given)
(25) CCC(C)NC(=O)C1CCC(=O)N1Cc1ccc(C)cc1 (stereo not given)
(26) CCc1ccc(CN(C)CC(=O)Nc2sccc2C#N)cc1
(27) CCc1cccc(C)c1NC(=O)COC(=O)CSCc1ccccc1
(28) COc1ccc(CCNC(=O)CSc2nc(C)nc3sccc23)cc1OC
(29) COc1ccc(N(CC(=O)Nc2ccc(OC)cc2OC)S(=O)(=O)c2ccccc2)cc1
(30) OC(c1ccccc1)c1nccn1Cc1ccccc1 (stereo not given)
entry no.	21	22	23	24	25	26	27	28	29	30
CtBP-E1A blk	8	-1	x	x	-1	20	10	3	-5	3
TRPML1 blocker	-11	-7	-12	-9	20	-7	1	-17	4	10
TRPML1 ag	0.9	-0.3	-0.2	-1.1	-0.6	0.1	1.0	-0.5	0.8	0.8
Six1-Eya2 blk	-5	9	-7	-2	3	2	2	0	-12	2
D2 PAM	-14	-19	-126	-18	2	-13	11	4	-5	6
TRPV1 potentiator	-14	2	-8	-5	-1	1	x	-14	12	9

(31) O=[N+]([O-])c1ccccc1S(=O)(=O)Nc1nc2ccccc2s1
(32) CC(NC(=O)COC(=O)Cn1cc(C(F)(F)F)ccc1=O)c1ccccc1 (stereo not given)
(33) COc1ccc(NC(=O)c2c(Cl)cnn2C)c(C)c1
(34) COc1cc(C=O)cc(OC)c1OS(=O)(=O)c1ccc(NC(C)=O)cc1
(35) Cc1ccc(-c2cc(C(=O)NCc3ccc4c(c3)OCO4)[nH]n2)c(O)c1C
(36) COc1ccc(N(CC(=O)NCc2ccco2)S(=O)(=O)c2ccc(C)cc2)cc1
(37) COC(=O)CCC(=O)Nc1ccc(C)cc1OC(=O)CCC(=O)OC
(38) O=C(c1ccncc1)N(Cc1ccco1)Cc1cc2ccccc2[nH]c1=O
(39) CCOC(=O)c1c(N2C(=O)Nc3ccccc3N2O)sc2c1CCCCC2
(40) N#Cc1ccc(-c2nc3ccccc3c(=O)n2O)cc1
entry no.	31	32	33	34	35	36	37	38	39	40
CtBP-E1A blk	-5	6	8	-2	-7	10	0	2	-5	x
TRPML1 blocker	-1	6	16	49	4	12	10	-3	34	27
TRPML1 ag	-0.4	3.5	0.3	0.9	3.0	0.7	-0.9	-0.5	0.0	1.4
Six1-Eya2 blk	-3	5	1	0	-10	10	-3	4	-3	4
D2 PAM	-3	3	0	-10	-17	-3	9	-1	-3	-7
TRPV1 potentiator	8	x	-1	-8	0	1	-1	0	11	-15

# Profiles as entered above. Order of screens: CtBP-E1A blk	TRPML1 blocker	TRPML1 ag	Six1-Eya2 blk	D2 PAM	TRPV1 potentiator
# Nc1[nH]c(=O)[nH]c(=O)c1N=Nc1ccc(C(=O)O)cc1 across the screens: 1	x	x	1	-5	4
# Cc1cc(C)cc(C(=O)NCCCN2CCOCC2)c1 across the screens: 1	-11	0.4	-6	-10	26

# Carrying on.
(41) O=C(Nc1cccc(Cl)c1)NC1CCS(=O)(=O)C1 (stereo not given)
(42) Cc1ccc(-c2nnn(CC(=O)N(Cc3cccs3)C(C(=O)NC(C)(C)C)c3ccc(C)o3)n2)o1 (stereo not given)
(43) CCCCOC(=O)C1=C(C)Nc2ncnn2C1c1cc(OC)c(OC)cc1OC (stereo not given)
(44) CC(C)CN(C(=O)c1cccc(Cl)c1)c1c(N)n(Cc2ccccc2)c(=O)[nH]c1=O
(45) COc1ccccc1-c1c(C)oc2c(CN3CCCCC3C)c(O)ccc2c1=O (stereo not given)
(46) OC[C@@H]1CN(Cc2ccccc2)C[C@H](n2cnc3c(NCc4ccc(F)cc4)ncnc32)O1
(47) c1ccc2c(Nc3nc(-c4ccncc4)nc4ccccc34)cccc2c1
(48) COc1ccc(CNC(=O)CSc2nc(C)cs2)cc1
(49) CC(C)C[C@H](NC(=O)c1nc[nH]c1C(=O)NCC(=O)OCc1ccccc1)C(=O)OC(C)(C)C
(50) CC(=O)c1ccc(NC(=S)NC(=O)/C=C/c2ccc(F)cc2)cc1
entry no.	41	42	43	44	45	46	47	48	49	50
CtBP-E1A blk	4	-5	-1	2	5	-1	6	x	3	-3
TRPML1 blocker	17	-19	7	4	11	x	27	3	17	6
TRPML1 ag	0.8	0.7	-0.1	0.5	-1.1	0.7	1.8	-0.9	-0.5	0.4
Six1-Eya2 blk	11	-1	0	2	0	-1	4	12	-1	1
D2 PAM	0	0	2	0	-6	3	-4	-4	-2	-2
TRPV1 potentiator	9	7	-10	13	9	x	-4	0	-2	5

(51) CCN(CC)C(C(=O)Nc1ccc(C(C)C)cc1)c1ccc2c(c1)OCO2 (stereo not given)
(52) O=S1(=O)CC(O)C(NCCO)C1 (stereo not given)
(53) CCOC(=O)C1CCCN(C(=O)c2ccc(C)c(S(=O)(=O)N3CCCCC3)c2)C1 (stereo not given)
(54) COC(=O)C[n+]1cccc2ccccc21
(55) Cc1ccnc(NC(=O)c2ccc(S(=O)(=O)N3CCCCC3)cc2)c1
(56) COCCNC(=S)N(CCc1c(C)[nH]c2ccc(C)cc12)Cc1cccnc1
(57) CCC(=O)Nc1nc2ccc(NC(=O)c3cc(OC)c(OC)c(OC)c3)cc2s1
(58) COc1ccc(S(=O)(=O)N2CCC(C(=O)NCCCc3ccccc3)CC2)cc1
(59) Cc1cccc2c(N=O)c(O)[nH]c12
(60) O=C(CNC(=O)c1cccs1)NCC(=O)OCc1cccc(Cl)c1
entry no.	51	52	53	54	55	56	57	58	59	60
CtBP-E1A blk	-1	2	0	-9	1	-4	-20	0	-2	-7
TRPML1 blocker	19	20	3	-5	-2	x	-16	18	x	-1
TRPML1 ag	0.8	-0.7	0.1	0.4	-0.7	x	1.3	0.4	x	-0.5
Six1-Eya2 blk	-4	1	-2	5	3	-14	-21	4	-1	-1
D2 PAM	-37	-2	-8	-5	0	-8	8	-2	-7	4
TRPV1 potentiator	-1	8	-18	-6	-5	-23	-4	-3	-9	-1

(61) O=C(CSc1ncc(-c2ccc(F)cc2)[nH]1)N1CCCCC1
(62) CCOC(=O)c1ccc(S(=O)(=O)Nc2ccccc2-c2nnn(CC)n2)cc1
(63) O=C(Nc1ccc2c(c1)OCO2)C1CCCN1C(=O)OCc1ccccc1 (stereo not given)
(64) Cc1ccc(S(=O)(=O)N2CCOCC2)cc1NC(=O)COC(=O)C1COc2ccccc2O1 (stereo not given)
(65) Cc1csc(CNC(=O)CC2C(=O)NCCN2Cc2ccc(F)cc2Cl)n1 (stereo not given)
(66) CCOC(=O)N1CCN(S(=O)(=O)c2ccc(OC)c(Br)c2)CC1
(67) COc1ccc(C(=O)NC=C2C(=O)OC(C)(C)OC2=O)cc1
(68) N#Cc1c(N)nc(N)nc1Nc1ccc(Br)cc1
(69) CCOC(=O)c1cc(-c2ccccc2)nn1CC1CC(c2cccnc2)=NO1 (stereo not given)
(70) CC1CCN(C(=O)C2CCN(S(=O)(=O)c3cc(Cl)ccc3Cl)CC2)CC1
entry no.	61	62	63	64	65	66	67	68	69	70
CtBP-E1A blk	2	41	-7	12	-2	x	0	-8	6	5
TRPML1 blocker	6	5	7	24	2	-3	-4	-24	-11	2
TRPML1 ag	-0.6	2.9	0.2	0.9	0.1	-0.5	0.7	2.0	-0.7	1.2
Six1-Eya2 blk	0	14	8	0	-1	-3	2	-10	-2	5
D2 PAM	-2	2	-2	-10	0	0	-2	0	-4	2
TRPV1 potentiator	-17	-7	15	7	-6	2	1	-6	x	-4

# Gathered by group, the compounds so far containing a tert-butyl group.
(42) Cc1ccc(-c2nnn(CC(=O)N(Cc3cccs3)C(C(=O)NC(C)(C)C)c3ccc(C)o3)n2)o1 (stereo not given)
(49) CC(C)C[C@H](NC(=O)c1nc[nH]c1C(=O)NCC(=O)OCc1ccccc1)C(=O)OC(C)(C)C
entry no.	42	49
CtBP-E1A blk	-5	3
TRPML1 blocker	-19	17
TRPML1 ag	0.7	-0.5
Six1-Eya2 blk	-1	-1
D2 PAM	0	-2
TRPV1 potentiator	7	-2

# Assay outcomes deposited in PubChem BioAssay by National Center for Advancing Translational Sciences (NCATS).
